Bead autofluor: compound fluorescence in toxin protease inhibitor counterscreen. compound autofluorescence counterscreen, microsphere flow cytometry; active compounds read high. fluorescence intensity (concentration not given with the values). 360,000 tested, 3.1% active;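 active means at least 3 SD above the mean of all compounds, about 16000 in these data; inconclusive means too few beads counted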;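 further: 100 nL of 1 mM stock went into each well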
BJeLR viability: MLPCN primary cell-based screen for lethality selective to Ras in HRASV12 cells; inhibition, % (test concentration not listed); AID 1554, 2009; 300,000 tested, 0.17% active; BJeLR (HRASV12) viability, CellTiter-Glo ATP luminescence, 48 h; reference of the scale not given here;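 active means replicate mean above 50%; inconclusive means above 50% but judged a plate artefact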;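 further: 50 nL library stock added to about 25 µL; numbers are from one replicate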
Mtb hypoxia inh: PubChem AID 1159583 | M. tuberculosis hypoxia-regulated fluorescent reporter, fluorescence | fluorescence inhibition, % (test concentration not listed) | 300,000 tested, 0.1% active;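 active means 35 to 45% if threefold the growth effect, above 45% if 1.5-fold the growth effect; inactive means the rest, general growth blockers included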;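 further: wells of about 50 µL received 100 nL stock; 0% = vehicle wells and 100% = reference inhibitor wells; whole bacteria with a GFP reporter of the hypoxia response; strong numbers were not always called active; many hits fall short of the cut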
ugtP null kill: growth inhibition of ugtP-null S. aureus, primary screen, RN4220 ugtP deletion, OD600; 330,000 tested, 0.54% active; 16 h; some inactives read as strong as hits; growth inhibition, % (concentration not given with the values);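 active means z-score under -3 and OD600 up to 0.15 on both plates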;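 further: plate controls were untreated wells for no effect and antibiotic for full effect; wells of about 80 µL received 100 nL stock; the first replicate is given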
Sa RN4220 lethal: growth inhibition of S. aureus RN4220, primary screen, OD600; 330,000 tested, 0.33% active; AID 1259311, 2017; 16 h; inhibition, % (concentration not given with the values);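 active means z-score of -3 or lower and OD600 up to 0.18 on both plates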;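 further: plate controls were untreated cells for no effect and reference antibiotic for full effect; stock transfer was 100 nL into about 80 µL; one replicate is shown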
PrP 5UTR inh: inhibition of PrP 5' UTR reporter expression. cell-based PrP 5' UTR mRNA reporter, plate reader. 340,000 tested, 0.35% active. inhibition, % (concentration not given with the values);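 active means every replicate at 50% or more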;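 further: 0 = median of the neutral control wells; tested in H4 reporter cells; numbers are from one replicate; inactives centre near -14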
Mtb hypoxia inh growth: further read-out of Mtb hypoxia inh, marked with its call; growth inhibition, %; measured here: M. tuberculosis growth (absorbance);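 0% = vehicle and 100% = reference antibiotic; read after six days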
Active calls of the source: *; ? = inconclusive; nt = no result given.

The first 4 compounds as a preview:
SMILES	Bead autofluor	BJeLR viability	Mtb hypoxia inh	Mtb hypoxia inh growth	ugtP null kill	Sa RN4220 lethal	PrP 5UTR inh
CC1CCc2sc(C(=O)NC3CCCCC3)cc2C1 (centres undefined)	4061	nt	17	18	-2	-1.0	-63
Cc1nnc(-c2ccco2)c2cn(-c3cccc(Br)c3)nc12	3658	4	20	14	-5	20	-15
CCCN(C(=O)c1cc(S(=O)(=O)N2CCCCCC2)ccc1OC)C1CCS(=O)(=O)C1 (centres undefined)	6111	-6	13	1	1	2.2	-5
Cc1nnc(NC(=O)c2ccc(S(=O)(=O)N3CC(C)CC(C)C3)cc2)o1 (centres undefined)	3465	0	-1	3	-6	12	-21

The whole of this part, from the first entry:
SMILES	Bead autofluor	BJeLR viability	Mtb hypoxia inh	Mtb hypoxia inh growth	ugtP null kill	Sa RN4220 lethal	PrP 5UTR inh
CC1CCc2sc(C(=O)NC3CCCCC3)cc2C1 (centres undefined)	4061	nt	17	18	-2	-1.0	-63
Cc1nnc(-c2ccco2)c2cn(-c3cccc(Br)c3)nc12	3658	4	20	14	-5	20	-15
CCCN(C(=O)c1cc(S(=O)(=O)N2CCCCCC2)ccc1OC)C1CCS(=O)(=O)C1 (centres undefined)	6111	-6	13	1	1	2.2	-5
Cc1nnc(NC(=O)c2ccc(S(=O)(=O)N3CC(C)CC(C)C3)cc2)o1 (centres undefined)	3465	0	-1	3	-6	12	-21
Cc1cc(C)n2nc(C(=O)OCC(=O)NNC(=O)c3ccc(Cl)cc3)nc2n1	4059	14	8	-2	7	2.4	-11
Cn1cccc1CC(=O)NN=Cc1ccco1	nt	nt	-3	-2	-1	2.0	nt
C/C(Cc1ccccc1)=N\NC(=O)CNC(=O)c1ccccc1O	3414	12	nt	nt	nt	nt	-11
Cc1ccc(-c2cnn(-c3cccc(C(F)(F)F)c3)c2N)cc1	8629	10	0	11	-2	6.7	-55
Cc1cc(=O)nc2c3ccccc3n(CC(=O)NC(C)c3ccc4c(c3)OCCO4)n12 (centres undefined)	5209	3	-6	6	0	-0.5	-8
CC(C)C12CN3CCN(CC(C3)C1=NO)C2	nt	nt	5	0	2	2.9	nt
CCC(C)Nc1c2c(nc3c(-c4ccccc4)c(C)nn13)CCC2 (centres undefined)	22116*	4	8	4	6	3.2	-19
Cc1cccn2c(=O)c(C=NO)c(N3CCOCC3)nc12	nt	nt	8	-17	7	3.1	nt
Cc1ccc(NC(=O)CSCC(=O)N2CCOCC2)cc1	9750	-8	1	0	1	-0.9	-9
CCOc1ccc(C(CC(=O)O)NS(=O)(=O)c2ccc(C)cc2)cc1OC (centres undefined)	4006	1	14	8	1	0.9	-20
COc1ccc(CN(C(=O)c2cccc(OC)c2)C2CCS(=O)(=O)C2)cc1 (centres undefined)	3818	-5	14	5	8	0.7	nt
O=C1COc2ccc(S(=O)(=O)N3CCc4ccccc43)cc2N1	3206	-7	17	12	3	4.8	nt
CC(C)CC1COCCS(=O)(=O)N1Cc1cccc(Cl)c1 (centres undefined)	nt	nt	0	0	-3	2.9	nt
COc1ccc(OC)c(N2C(=O)NC(=O)C3(Cc4cc(C)ccc4N(C)C3)C2=O)c1 (centres undefined)	16331*	0	9	7	9	6.0	-2
CCNc1nc(NCC)n2c(SCC(=O)Nc3cccc(Cl)c3)nnc2n1	4339	3	-4	-3	3	3.4	10
COc1ccccc1N(CC(=O)NCC1CCCO1)C(=O)Cn1nnc(-c2cccs2)n1 (centres undefined)	4495	-5	-3	-2	-5	-2.3	-65
COc1ccc(/C=C/C(=O)OCC(=O)Nc2ccc3c(c2)OCO3)cc1	4809	nt	7	0	0	-1.5	-14
O=C(NNC(=O)c1ccccc1Br)c1ccncc1	3944	-7	3	10	-1	3.4	-23
CCOC(=O)c1sc(NC(=O)c2cc(S(=O)(=O)N3CCOCC3)ccc2C)nc1C	?	-6	9	9	-2	3.9	-8
COc1cc(C(=O)COC(=O)c2ccco2)cc(OC)c1OC	3613	nt	5	5	4	5.4	-21
COc1cccc(-c2nc(N)nc(SC)c2C#N)c1	4166	3	-9	5	8	6.3	-3

Quoted at random: 2 records from the list.
SMILES	Bead autofluor	BJeLR viability	Mtb hypoxia inh	Mtb hypoxia inh growth	ugtP null kill	Sa RN4220 lethal	PrP 5UTR inh
Cc1cccn2c(=O)c(C=NO)c(N3CCOCC3)nc12	nt	nt	8	-17	7	3.1	nt
COc1cccc(-c2nc(N)nc(SC)c2C#N)c1	4166	3	-9	5	8	6.3	-3

The list continues:
SMILES	Bead autofluor	BJeLR viability	Mtb hypoxia inh	Mtb hypoxia inh growth	ugtP null kill	Sa RN4220 lethal	PrP 5UTR inh
Cc1cccc(C(=O)NC(C(=O)Nc2cccc(S(=O)(=O)N3CCCC3)c2)C(C)C)c1 (centres undefined)	8989	nt	4	5	14	5.8	-26
CN(C)S(=O)(=O)c1cccc(NC(=O)COC(=O)/C=C/c2ccco2)c1	2060	2	1	-4	2	3.9	-9
COc1ccc(OC)c2c1sc(=NC(=O)c1cccc(N3C(=O)CCC3=O)c1)n2C	5739	-4	5	8	11	3.3	-3
CCOc1ccc2[nH]cc(S(=O)(=O)c3ccc(Cl)cc3)c(=O)c2c1	4423	6	-9	-6	8	4.1	-21
COc1ccc(NC(=O)CCNS(=O)(=O)c2cccc3nonc23)cc1	4354	-5	13	-1	-4	3.9	2
COC(=O)c1sccc1NC(=O)C1C2C=CC(O2)C1C(=O)O (centres undefined)	3800	-4	1	6	-7	3.9	-17
CSc1nc2ccccc2n1Cc1c(Cl)cccc1Cl	3341	4	nt	nt	17	-3.5	-5
C#CCNc1nc(C)nc2c1nnn2Cc1ccccc1F	2846	1	nt	nt	2	0.3	-16
CC1CCC2(CC1)NC(=O)N(CC(=O)NCc1ccc(F)cc1)C2=O (centres undefined)	6475	nt	7	-3	4	0.7	-17
Cc1cccc(C(=O)O/N=C(\N)CS(=O)(=O)c2ccccc2)c1	5702	-1	2	-10	4	-1.6	-25
CS(=O)(=O)N1CCN=C1SCc1ccc(F)cc1	6054	4	6	-4	-1	1.7	-7
CCCOc1cccc(C(=O)NN=Cc2ccoc2)c1	nt	nt	-4	-6	3	1.4	nt
CN1CCN(C(=O)C2CCC(CNS(=O)(=O)c3cccc4cccnc34)CC2)CC1 (centres undefined)	4299	1	nt	nt	6	6.6	-8
Cc1ccc(C)c(CSc2nnc(C)c(=O)[nH]2)c1	2550	0	3	10	-9	8.6	-11
COc1ccc(CN(C)C(=O)c2[nH]c(C)c(C(C)=O)c2C)c(OC)c1OC	3698	0	14	0	-1	4.6	-8
CCCC(NC(=O)CCc1c(C)c2cc3c(-c4ccccc4)coc3cc2oc1=O)C(=O)O (centres undefined)	3340	10	0	-1	-19	13	-6
CC(C)NC(=O)C1CCN(C(=O)C(C(=O)c2ccccc2)n2cc(Cl)ccc2=O)CC1 (centres undefined)	23513*	4	-3	0	7	4.9	6
Cc1ccc(CNC(=O)c2ccc(N3CCC4(CC3)CC(c3cccc(Br)c3)=NO4)c(NC(=O)c3ccco3)c2)cc1	4408	7	7	4	9	15	-8
Cn1cccc1C(NC(=O)c1ccccc1)C(Cl)(Cl)Cl (centres undefined)	3317	3	-10	7	-5	4.7	-8
COc1ccc(/C=N/NC(=O)c2cccc(NC(=O)c3ccc(F)cc3)c2)c(C(=O)O)c1OC	2026	-3	nt	nt	nt	nt	-21
CN1CCN(Cc2cn3cccnc3n2)CC1	4910	-6	5	11	4	3.7	-5
COc1ccc(CN2C(=O)c3cccnc3C2O)cc1 (centres undefined)	3920	4	-4	3	-1	3.6	-19
O=C(COc1ccc(S(=O)(=O)N2CCCC2)cc1)N1CCN(c2ccccc2F)CC1	3625	-12	1	4	0	2.3	-15
CCCN(CCC)CCNC(=O)C1c2ccccc2C(=O)N(CCOC)C1c1ccc(F)cc1 (centres undefined)	8829	3	15	9	3	1.2	-26
COc1ccc(OCC(O)Cn2c(=N)n(CCN3CCOCC3)c3ccccc32)cc1 (centres undefined)	2327	-11	nt	nt	-4	0.3	-24
SMILES	Bead autofluor	BJeLR viability	Mtb hypoxia inh	Mtb hypoxia inh growth	ugtP null kill	Sa RN4220 lethal	PrP 5UTR inh
CCOc1ccc(N(CC(=O)NCc2cccc(OC)c2)S(=O)(=O)c2c(C)noc2C)cc1	?	1	6	-4	16	3.0	-12
CC(=NO)C(C)(C)NC(=O)Nc1ccc(Cl)cc1	nt	nt	3	8	-2	3.1	nt
CCOc1ccccc1C1CC(=O)Nc2cc(OC)c(OC)cc21 (centres undefined)	3610	10	5	-1	8	-0.4	-14
O=C(N/N=C/c1ccc([N+](=O)[O-])o1)c1sc2ccccc2c1Cl	4600	-2	nt	nt	nt	nt	2
O=C(Nc1ccccc1F)c1ccc(S(=O)(=O)NCC2CCCO2)cc1 (centres undefined)	9722	9	4	6	2	-0.3	-6
CCC1CN(C(=O)N2CCC(C(=O)NCc3ccc(C)o3)CC2)c2ccccc2O1 (centres undefined)	6400	8	nt	nt	nt	nt	-18
COc1ccc(/C=C(\C#N)C(=O)NCc2cccnc2)cc1OC	3560	9	-1	7	1	2.1	-8
CC(=O)c1ccc(OCc2cc(C(=O)NCCN3CCCC(O)C3)no2)cc1 (centres undefined)	nt	8	0	-3	-6	-3.2	-18
O=C1CC(c2ccccc2)CC(O)=C1C=NCc1ccc(Cl)cc1 (centres undefined)	9250	9	-2	-1	0	4.1	-21
O=C(N/N=C/c1c(O)ccc2ccccc12)c1ccc[n+](CCO)c1	2269	0	nt	nt	nt	nt	8
COc1ccc(C)cc1NC(=O)CCC(=O)Nc1nnc(C2CCCCC2)s1	5673	8	8	14	1	2.4	-23
CNC(=S)NNc1nc(N2CCOCC2)nc(N2CCOCC2)n1	2072	0	2	0	-6	3.4	-61
CCOc1ccc(-n2ccnc(SCC(=O)Nc3cccc(OC)c3)c2=O)cc1	?	3	5	6	7	-2.6	-18
O=C(Nc1ccccc1Cl)NC1CCCCCCC1	5484	nt	4	1	-7	1.2	-22
NC(=O)c1cc2ccc(O)cc2oc1=Nc1ccccc1	3572	-12	nt	nt	-12	0.6	-39
CCCCCCNC(=O)Nc1ccccc1	8240	-16	12	11	6	3.1	-23
O=C(CSc1nnc(-c2ccco2)n1Cc1ccccc1)NCc1ccccc1	4942	0	nt	nt	12	1.8	-20
CN(C)CCCNc1ncnc2c1cnn2-c1ccccc1	4680	0	10	8	11	4.1	7
CC(=O)c1cccc(NC(=S)NC(=O)c2ccc(Cl)cc2)c1	2174	4	1	7	9	0.1	-110
Cc1cc(=O)oc2cc(OCC(=O)N3CCCC3)c(Cl)cc12	7741	nt	0	3	6	2.3	-5
CCN(C[C@H]1N[C@@](C)(C(=O)OC)[C@H]2C(=O)N(Cc3ccccc3)C(=O)[C@@H]12)C(=O)COC	2913	nt	-1	1	4	-0.4	-16
O=C(CCS(=O)(=O)c1ccccc1)Nc1ccc(Cl)cn1	5664	-6	-1	-3	7	1.0	-18
O=S(=O)(CCN1CCOCC1)c1ccc(OC(F)(F)F)cc1	3768	0	3	2	10	4.7	-53
O=c1c2ccccc2nnn1CSc1nc2cc(Cl)ccc2c(=O)n1Cc1ccco1	nt	8	3	-5	-2	2.4	nt
NC(N)=Nc1nc(-c2ccccc2)c2cc(Cl)ccc2n1	nt	-6	20	22	-23	-12	-17
SMILES	Bead autofluor	BJeLR viability	Mtb hypoxia inh	Mtb hypoxia inh growth	ugtP null kill	Sa RN4220 lethal	PrP 5UTR inh
CN(c1ccccc1)S(=O)(=O)c1ccc(NC(=S)NC(=O)c2ccccc2)cc1	3505	0	nt	nt	39	-0.5	0
O=c1nccc(NCc2ccco2)[nH]1	8756	0	8	11	-5	7.2	-28
COc1ccc(-c2nn(-c3ccccc3)cc2/C=N/Nc2ccc(S(N)(=O)=O)cc2[N+](=O)[O-])cc1OC	3548	12	nt	nt	nt	nt	-20
O=C(COc1ncnc2scc(-c3ccc(Cl)cc3)c12)NCc1ccco1	2611	1	nt	nt	-6	-6.7	-20
O=c1c2ccccc2nc(-c2ccccc2)n1-c1ccccc1O	4103	3	13	22	8	8.1	-22
CC1CCN(C(=O)Cn2c(=O)c3cccn3c3ccccc32)CC1	5378	1	0	10	-8	0.5	0
Cc1nc2ncnn2c(C)c1CCC(=O)N1CCCCC1	4106	1	5	9	7	5.2	-20
Cc1ccc(S(=O)(=O)N2CCCCC2)cc1NC(=O)COc1ccccc1	3925	nt	6	3	3	4.6	-5
O=C(CCc1c[nH]c2ccccc12)NCCc1ccc(Cl)cc1	6066	-4	4	0	-10	5.4	-17
CC(C)(C)C1CCC(=NNC(=O)C(=O)NC2CCCCC2)CC1 (centres undefined)	7119	6	12	6	4	2.6	-19

From PubChem
